ClpP mod – qHTS Assay for Activators of ClpP | purified B. subtilis ClpP, FRET peptide cleavage, 20 min | actives 1.9% (n = 340,000) | Potency, µM (titrated, usually from 57.5 µM), without a hit: top-dose activity change, negative = active | ATP-dependent Clp protease proteolytic subunit (Bacillus subtilis (strain 168)), P80244; active = well fitted falling curve with a large enough effect; inconclusive = small, poorly fitted or top-dose-only effect; inactive = no such curve, though single readings can be large or run the other way; also: potency is read from the fitted curve at half-maximal effect; the source files actives as falling curves though it sought activators and does not explain the sign; nearly all actives have a fitted effect of over 65% in size; many hits overshoot -100%
Target sequence (P80244 whole entry, looked up): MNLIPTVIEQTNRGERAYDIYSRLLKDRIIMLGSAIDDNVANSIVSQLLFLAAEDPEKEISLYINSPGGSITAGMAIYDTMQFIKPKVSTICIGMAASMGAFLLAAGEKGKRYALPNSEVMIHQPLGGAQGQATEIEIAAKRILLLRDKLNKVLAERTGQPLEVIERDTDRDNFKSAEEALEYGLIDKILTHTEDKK
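Buffer: 100 mM Tris/HCl pH8, 100 mM KCl, 0.05% low protease BSA, 2.5% glycerol, 0.01% Tween-20. ClpP 10 microg/mL final; 20 min RT; delta FRET normalized to ADEP and DMSO controls.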
TRPML1 blocker – human mucolipin-1 channel inhibition; Q9GZU1; TRPML1-inducible cells, Ca2+ dye fluorescence, FDSS; hits give low values; inhibition of EC80 agonist-evoked calcium signal; activity change, negative = inhibition, % (concentration not given with the values); actives 0.02% (n = 390,000); AID 624415; in the data active means activity change below about -50%; inconclusive means about -30% to -50%; inactive means above about -30%;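 also: stimulus is agonist 54-4 at its EC80 concentration; % is scaled to controls: 0 for no effect and ±100 for the full control effect; compound concentration not given in the record; the text of the record puts the active cut at -80%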
Target sequence (Q9GZU1 whole entry, looked up): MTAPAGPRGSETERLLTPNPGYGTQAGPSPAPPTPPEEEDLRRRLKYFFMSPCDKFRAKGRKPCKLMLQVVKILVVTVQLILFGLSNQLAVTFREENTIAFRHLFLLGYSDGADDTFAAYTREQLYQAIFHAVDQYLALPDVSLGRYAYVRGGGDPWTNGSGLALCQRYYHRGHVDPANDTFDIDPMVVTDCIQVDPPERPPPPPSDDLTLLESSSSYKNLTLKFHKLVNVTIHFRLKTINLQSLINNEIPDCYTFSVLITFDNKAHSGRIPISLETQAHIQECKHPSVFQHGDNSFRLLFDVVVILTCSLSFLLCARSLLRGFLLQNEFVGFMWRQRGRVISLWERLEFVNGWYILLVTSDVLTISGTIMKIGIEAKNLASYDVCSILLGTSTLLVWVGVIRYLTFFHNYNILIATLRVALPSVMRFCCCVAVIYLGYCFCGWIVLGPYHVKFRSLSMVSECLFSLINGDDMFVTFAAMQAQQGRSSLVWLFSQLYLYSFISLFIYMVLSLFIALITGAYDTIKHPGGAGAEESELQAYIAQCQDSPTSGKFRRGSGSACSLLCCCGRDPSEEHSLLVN
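TRPML1-DL cells, Tet-induced overnight (~16 h, 37 °C) at 1,500 cells/well, were loaded with Ca8 no-wash dye plus quencher for 45-90 min at room temperature. Compounds were pinned during FDSS kinetic reading; agonist 54-4 at EC80 (4 uM final) then added.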
Sfp PPTase inh – blocks B. subtilis Sfp PPTase activity; Q9F4F7; Biochemical Sfp PPTase activity, qHTS; Potency, µM, for inactives: max response, negative = inhibition, most hits filed as inhibitors; actives 3.5% (n = 310,000); AID 1490; active = well fitted inhibition curve with a large enough effect; inconclusive = small, poorly fitted or top-dose-only effect, or another doubt; inactive = no such curve, though single readings can be large or run the other way;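 also: the enzyme is Sfp with the accession as filed and its product quenches rhodamine fluorescence; potency is read from the fitted curve at half-maximal effect; 0% = enzyme reaction without inhibitor and -100% = no enzyme wells; top concentration of the series not given in the record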
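Compounds were incubated with enzyme (final 15 nM) for 15 min at room temperature before substrate addition started the reaction. Fluorescence at 525 nm excitation, 598 nm emission was recorded immediately and after 30 minutes.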
TRPV1 potentiator – potentiators of human vanilloid receptor 1 (TRPV1). TRPV1-expressing cells, Fluo-8 calcium influx, capsaicin EC20 potentiation; host cell line not named in the record; control for the full effect not named in the record. potentiation, % at 8.33 µM. actives 0.02% (n = 320,000); active means potentiation above 80%; inconclusive means 30% to 80%; inactive means below 30%; also: 0% is about no effect
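TRPV1-expressing cells were cultured overnight at 35.5C and loaded with Fluo-8 calcium dye for 40 to 90 min at room temperature. After a 10 s baseline, compound was added and calcium influx was read kinetically for 3 min (ex 480/em 520 nm).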
PINK1 expr mod – changes PINK1 expression; Potency, µM (highest dose often 76.6 µM), for inactives: at the highest dose activation (PINK1 increase), hits mostly activators; PINK1 immunofluorescence, high-content cytometry, 24 h; actives 0.2% (n = 410,000); active = well fitted activation curve with a large enough effect; inconclusive = small, poorly fitted or top-dose-only effect; inactive = flat fitted curve, though single readings scatter; cell line not stated here;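 also: potency is read from the fitted curve at half-maximal effect; % of control where 0% means no effect; nearly all actives have a fitted effect of over 65% in size; a mitochondrial uncoupler was the plate control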
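Cells are seeded, rested 12 hours, then given compound at five concentrations or DMSO for 24 hours. After fixation, blocking and antibody staining, PINK1 amount and mitochondrial localization are scored; CCCP serves as control.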
TRPML1 ag – activates the human TRPML1 channel. Q9GZU1. TRPML1-expressing cells, Ca2+ dye fluorescence, FDSS; host cell line not named in the record; reference of the full effect not given here. activation, % (concentration not given with the values). actives 0.12% (n = 410,000). AID 624414; in the data active = activation above about 50%; inconclusive = about 30% to 50%; inactive = below about 30%; also: 0% is about no effect; the text of the record puts the active cut at 80%
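Tet-induced TRPML1-DL cells, 1,500 per well, cultured overnight, were loaded with a no-wash Ca2+ dye for 45–90 min. Calcium fluorescence was recorded on the FDSS for 110 s after compound addition, before the EC80 agonist (4 uM 54-4) was added.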
Menin-MLL FL inh – displaces fluorescein MLL peptide from human menin | Fluorescence polarization, fluorescein-MLL peptide displacement from menin | AID 1766 | 290,000 tested, under 10 active | FP activity change, % at 61.4 µM; inconclusive = falling polarisation curve, or a change in total fluorescence; inactive = total fluorescence flat and polarisation flat or rising; no compound was filed as active; the % refers to the polarisation; negative = inhibition;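 also: % of control where 0% means no effect; inhibitors lower the polarisation; unlabelled MLL peptide was the positive control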
* = called active by the depositor; ? = inconclusive; . = no result given; [ ] = remark or other dose.

SMILES	ClpP mod	TRPML1 blocker	Sfp PPTase inh	TRPV1 potentiator	PINK1 expr mod	TRPML1 ag	Menin-MLL FL inh
C[C@H]1CN([C@@H](C)CO)C(=O)c2cc(Br)cnc2O[C@@H]1CN(C)C(=O)Nc1ccc(C(F)(F)F)cc1	-1.4%	-2	.	.	1.4%	-0.4	.
Cc1cc(NC(=O)CSc2nnc3c(C)cc4ccccc4n23)no1	-1.9%	2	13%	-9	.	0.7	-1.1
Cc1cnc(CNc2ccnc(-c3ccccc3C(F)(F)F)n2)cn1	.	.	-9%	.	0.9%	.	-1.0
Cc1ccc(C)n1-c1c(C(=O)NCC(C)c2ccccc2)sc2ncccc12 (stereo not drawn)	6.6%	66	.	.	4.4%	1.9	.
Cc1nc2ccc(C(=O)Nc3cccc(NS(C)(=O)=O)c3)cn2c1N(C)C(=O)CCc1ccccc1	-7.0%	.	.	.	1.6%	0.0	.
COC(=O)c1ccc(OCC(O)CN2C(=O)c3ccccc3S2(=O)=O)cc1 (stereo not drawn)	.	15	7%	7	-2.0%	1.0	-2.2
O=C(COC(=O)/C=C/c1cccs1)NC(c1ccccc1)c1ccccc1	-3.4%	10	14%	-4	?	0.1	3.9
COc1ccc(/C=N/NC(=O)c2ccoc2C)cc1COc1ccc(Cl)cc1	-3.3%	-12	-5%	-19	3.4%	-0.3	1.9
COc1ccccc1C(=O)Nc1ccc(OCc2cc(=O)n3ccc(C)cc3n2)cc1	-0.6%	11	.	.	0.5%	0.7	.
Cc1cc(C)cc(OCC(=O)NNC(=O)c2cc(C)[nH]n2)c1	-0.3%	-4	-1%	2	-2.4%	-0.4	1.9
COc1ccc(S(=O)(=O)NC(C)C(=O)NCc2cccnc2)cc1Cl (stereo not drawn)	.	3	4%	1	5.0%	0.7	6.1
COc1ccc(C(=O)COC(=O)c2cc(C)no2)c(OC)c1	-3.8%	3	.	4	-1.7%	-0.1	.
Cc1ccc(C)c(NC(=S)NCCc2c[nH]c3ccccc23)c1	.	2	20%	-6	3.3%	2.5	0.3
Cc1ccc(-c2nc3ccccc3o2)cc1NC(=S)NC(=O)/C=C/c1ccco1	4.0%	-1	-1%	14	4.2%	2.5	21
Cc1cc(OCC(=O)N(C)Cc2ccccc2)cc(C)c1Cl	-0.1%	21	-3%	-16	3.5%	2.3	-1.0
CCOC(=O)CSc1nnc(NC(=O)c2cccc(S(=O)(=O)N3CCCC3)c2)s1	-0.5%	11	34%[activator]	4	-0.7%[38.3 µM]	0.2	3.5
CS(=O)(=O)N1CCC(C(=O)Nc2cccc(Br)c2)CC1	-1.2%	7	16%	-3	0.9%	-0.3	-0.4
COc1ccc(N(CC(=O)NCC2CCCO2)C(=O)CCC(=O)Nc2cc(C)on2)cc1OC (stereo not drawn)	.	5	9%	18	1.1%	0.4	0.0
CCOc1ccc(CN2C(=O)CC(=O)N(S(=O)(=O)c3ccc(OCC)cc3)C2=O)cc1	.	-28	13%	29	3.1%	0.3	?
O=C(O)c1sccc1SCc1ccc(Cl)c(Cl)c1	-0.9%	-6	4%	.	-0.2%	-0.6	2.2
COc1ccc(OC)c(CCNC(=O)c2ccc3[nH]c(C)c(C)c3c2)c1	-26%	12	.	.	0.0%	2.0	.
O=C(COc1ccc2ccccc2c1CN1CCOCC1)N1CCc2ccccc21	-3.6%	-12	1%	-9	-3.0%	1.4	0.3
COc1cccc(N2CCN(c3c4c(nc5nncn35)CCC4)CC2)c1	-1.0%	-11	.	.	1.0%	0.7	.
Cc1cc2c(cc1C)N(C(=O)CCl)CC(=O)N2	-7.2%	13	.	.	-1.2%	-0.1	.
O=C1C=C(Nc2ccc(Cl)cc2Cl)CC(c2ccco2)C1 (stereo not drawn)	.	9	-25%	-17	1.1%	0.7	7.0

Reprinted from the part before: 2 compounds, then new ones.
SMILES	ClpP mod	TRPML1 blocker	Sfp PPTase inh	TRPV1 potentiator	PINK1 expr mod	TRPML1 ag	Menin-MLL FL inh
Cc1cc2c(cc1C)N(C(=O)CCl)CC(=O)N2	-7.2%	13	.	.	-1.2%	-0.1	.
O=C1C=C(Nc2ccc(Cl)cc2Cl)CC(c2ccco2)C1 (stereo not drawn)	.	9	-25%	-17	1.1%	0.7	7.0
CCOC(=O)c1c(C)[nH]c(C(=O)OCC(=O)N2CC(C)OC(C)C2)c1C (stereo not drawn)	-2.1%	-3	7%	-6	1.9%	-0.2	5.7
CCc1cccc(C)c1NC(=O)c1cccc(C(=O)Nc2c(C)cccc2CC)c1	3.3%	6	.	.	3.0%	0.8	.
O=C(CCSc1ccccc1)Nc1ccccc1Br	.	-5	7%	-4	2.0%	1.7	1.6
O=C(Cn1c(=O)n(Cc2ccc(F)cc2)c(=O)c2sc3ccccc3c21)NCc1ccccc1	0.4%	-16	.	.	5.9%	-0.5	.
O=C(NNc1ccccn1)c1ccc(Cl)nc1	.	-13	56µM*	17	3.4%	-0.6	4.2
Cc1ccc(OCC(=O)N(C)Cc2ccccc2)c([N+](=O)[O-])n1	0.7%	13	28%	0	-0.2%	-0.2	4.0
Cc1ccc(C(=O)Nc2onc3c2CCCC3)cc1	0.5%	-9	.	.	-0.2%	-0.3	.
COc1ccc(Cl)c(Cn2c(NCCCN(C)C)nc3c2c(=O)n(C)c(=O)n3C)c1	-2.1%	10	14%	4	-4.0%	-0.6	-5.8
S=c1[nH]ncn1-c1ccccn1	-2.3%	-5	22µM*	-5	1.7%	-0.4	5.0
COc1cc([N+](=O)[O-])cc(/C=N/N(CCC#N)C(C)=O)c1O	.	-9	13%	3	-2.3%	-0.7	3.3
O=C(CNC(=O)c1ccccc1)OCc1cccc(Br)c1	.	-9	11%	-16	1.1%	1.1	-0.3
Cc1ccc2nc(N3CCN(S(=O)(=O)c4ccc(C)c(Cl)c4)CC3)c(C#N)cc2c1	-18%	3	13%	3	-11%[38.3 µM]	1.5	6.5
COc1cc(NC(=O)CN2CCN(c3ccccn3)CC2)cc(OC)c1OC	.	8	13%	6	-1.3%	-0.5	3.7
Cc1cc(C)nc(N2CCN(C(=O)CCC(=O)Nc3nnc(CC(C)C)s3)CC2)n1	.	-14	-13%	-6	-1.4%	-1.0	5.9
COc1cccc(NC(=S)NNC(=O)Cn2nc([N+](=O)[O-])cc2C)c1	.	-7	9%	15	-1.2%	0.9	1.5
CCN(CC)S(=O)(=O)c1ccc2c(c1)nc(CN(C)C(=O)c1cccc(Cl)c1)n2C	0.4%	2	.	.	1.1%	-0.2	.
O=C(COc1ccccc1)N(Cc1ccccc1)c1nc(-c2ccccc2)cs1	0.6%	-2	11%	6	7.4%	0.2	6.7
CC(=O)NNC(=O)c1cc2c3ccccc3n(C)c2s1	4.2%	-22	5%	1	2.7%	1.5	-1.2
O=C(C1=C(O)C(=O)N(c2ncccn2)C1c1ccc(Cl)cc1)c1ccco1 (stereo not drawn)	-0.3%	4	-5%	0	0.4%	1.1	?
CCN(CC)S(=O)(=O)c1ccc2c(c1)nc(SCC(N)=O)n2-c1ccc(OC)cc1	-3.2%	-27	12%	-17	-1.2%	0.6	-0.4
CCOc1ccc(C(C(=O)NC2CCCC2)N(CCOC)C(=O)CNC(=O)c2ccco2)cc1 (stereo not drawn)	-2.0%	21	6%	-2	1.8%	0.3	1.8
COc1cc(CCC(=O)N2CCN(S(=O)(=O)c3ccc(C)cc3)CC2)cc(OC)c1OC	-1.1%	0	.	2	-0.8%	0.2	.
C=C(C)CSc1nnc(CCCCCNC(=O)OC(C)(C)C)o1	0.6%	-13	16%	-19	0.6%	-0.6	0.1
CCCCOc1ccc(C(=O)NCC(=O)NC2CCCCC2)cc1	1.6%	-6	.	2	1.9%	-0.3	.
Cc1nc([N+](=O)[O-])cn1CC(=O)Nc1ccc(F)c(Cl)c1	-2.0%	-10	30%	14	2.2%	-0.3	6.8
The listing continues.
SMILES	ClpP mod	TRPML1 blocker	Sfp PPTase inh	TRPV1 potentiator	PINK1 expr mod	TRPML1 ag	Menin-MLL FL inh
COc1ccc(NC(=O)CSc2cc(C)ccc2C)cn1	.	42	1%	-11	-1.0%	1.9	-22
CC1=C(C(=O)Nc2ccc(C)c(C)c2)C2(CCCCCC2)OC1=O	6.6%	5	.	.	1.7%	1.2	.
Cc1ccc(N2CC(NC(=O)C3CCCCC3)CC2=O)cc1 (stereo not drawn)	0.4%	7	.	.	-0.6%	-0.2	.
COc1ccc(OC(F)(F)F)cc1CC1(C)C(=O)Nc2ccc(S(=O)(=O)NC3CCCCC3)cc21 (stereo not drawn)	-1.7%	-18	.	.	24%	-0.5	.
Cc1ccc(CCN2CC(C(=O)NC3CCC(C)CC3)CC2=O)cc1 (stereo not drawn)	2.2%	14	.	.	0.8%	-0.7	.
CCC(=O)Nc1ccc(N2CCN(S(C)(=O)=O)CC2)cc1	3.5%	22	-1%	10	?	1.4	4.7
CCc1ccc(C2=NN(CCC(=O)NC3CCCCCC3)C(=O)CC2)cc1	1.1%	-7	9%	8	-1.6%	1.2	.
O=C(c1cc2ccccc2o1)N1CCN(c2ccccc2Cl)CC1	-1.2%	34	-26%	14	0.0%	1.9	-3.9
CCC/C(O)=C1\C(=O)CCCC1=NCCc1c(C)[nH]c2ccc(OC)cc12	-0.5%	-10	-16%	-8	-0.7%	-0.2	-6.2
O=C(COCc1cc(-c2cccs2)on1)NCc1ccccc1Cl	-5.8%	9	.	.	0.2%	0.3	.
CCOC(=O)c1c(NC(=S)Nc2ccccc2)sc2c1CCN(C)C2	11%	2	?	24	1.9%	-0.2	?
C[C@@]12C(C[C@H](O)[C@@]34C[C@@H](CCC13)[C@@H](CO)C4=O)[C@](C)(C(=O)O)CC[C@@H]2O (stereo partly drawn)	-1.4%	-4	.	.	0.5%	-0.8	.
CCCNc1ncnc2sc(C)c(C)c12	-3.2%	25	26%	-33	4.9%	0.6	7.3
O=C(NCCOc1ccccc1)c1ccccc1NC(=O)C1CCCO1 (stereo not drawn)	.	34	17%	10	4.4%	-0.7	-1.2
CCOC(=O)CCC(NC(=O)CCCC(=O)NC(CCC(=O)OCC)C(=O)OCC)C(=O)OCC (stereo not drawn)	-0.4%	-11	-10%	0	3.5%	-0.4	1.9
CN(C)C1=NC[C@H](Cc2ccccc2)N1CCc1cccc(F)c1	-0.5%	-9	.	?	-0.9%	0.2	.
O=C1CN(C(=O)COC(=O)c2ccc(Cl)cc2)c2ccccc2N1	1.1%	2	.	10	1.0%	0.6	.
CSc1ccccc1NC(=O)c1ccco1	1.5%	4	-5%	-5	5.0%[38.3 µM]	-0.3	-3.7
